RGS16-Gao HTS: modulates binding between human RGS16 and Galphao. O15492+P09471. bead-based flow cytometry RGS16-Galphao binding, fluorescence; actives lie on both sides. binding response (% of control), % at 10 µM. 0.38% of 220,000 active;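 active = below 25% or above 175%, edge rows of some plates excepted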;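 also: Galphao activated by GDP with aluminum fluoride before binding; 100% = wells without compound and 0% = beads without RGS; some results beyond the cut were filed as inactive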
Target sequence (O15492 whole entry, looked up): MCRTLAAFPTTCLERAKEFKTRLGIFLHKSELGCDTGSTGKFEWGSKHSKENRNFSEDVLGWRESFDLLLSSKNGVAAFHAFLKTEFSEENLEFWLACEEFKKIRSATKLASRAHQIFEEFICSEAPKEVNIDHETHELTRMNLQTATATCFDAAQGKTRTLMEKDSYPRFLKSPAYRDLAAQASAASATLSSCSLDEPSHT
Target sequence (P09471 whole entry, looked up): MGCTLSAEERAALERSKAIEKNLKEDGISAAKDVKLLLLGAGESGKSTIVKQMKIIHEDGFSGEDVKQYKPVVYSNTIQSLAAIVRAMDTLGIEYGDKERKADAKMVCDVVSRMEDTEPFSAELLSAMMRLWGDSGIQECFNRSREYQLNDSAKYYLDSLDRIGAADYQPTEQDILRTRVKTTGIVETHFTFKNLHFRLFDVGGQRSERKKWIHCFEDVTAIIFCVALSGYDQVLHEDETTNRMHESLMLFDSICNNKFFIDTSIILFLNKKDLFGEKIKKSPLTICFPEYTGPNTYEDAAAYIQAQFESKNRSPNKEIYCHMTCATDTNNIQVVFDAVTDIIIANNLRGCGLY
PKD1 kinase inh: PKD1 (human) kinase inhibition | 0.056% of 200,000 active | PKD1 kinase fluorescence polarization assay | inhibition, %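 (about 10 µM by stock and volumes)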 | AID 797;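 active = inhibition of 50% or more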;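 also: controls were vehicle for no effect and a reference inhibitor for full effect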
INS promoter inh: TRM-6 insulin promoter activity inhibition | TRM-6 cells (human fetal islet line), insulin promoter-eGFP reporter, imaging; reporter expression induced with tamoxifen | AID 1273 | 0.9% of 130,000 active | inhibition, % at 2 µM;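 active = inhibition above the mean plus 3 SD, with well images judged a real hit on visual review, cut at about 60% in these data, passing the limit was not always enough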
GALR2 ag: activates the human galanin receptor 2 | O43603 | GALR2-expressing cells, agonist activation read-out | activation, %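 (tested at 5 µM)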 | 0.48% of 140,000 active;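 active = above mean plus 3 SD of all compounds, about 5% in these data, not always enough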;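 also: 0% = vehicle buffer wells and 100% = reference agonist at full effect; tested in CHO reporter cells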
Target sequence (O43603 whole entry, looked up): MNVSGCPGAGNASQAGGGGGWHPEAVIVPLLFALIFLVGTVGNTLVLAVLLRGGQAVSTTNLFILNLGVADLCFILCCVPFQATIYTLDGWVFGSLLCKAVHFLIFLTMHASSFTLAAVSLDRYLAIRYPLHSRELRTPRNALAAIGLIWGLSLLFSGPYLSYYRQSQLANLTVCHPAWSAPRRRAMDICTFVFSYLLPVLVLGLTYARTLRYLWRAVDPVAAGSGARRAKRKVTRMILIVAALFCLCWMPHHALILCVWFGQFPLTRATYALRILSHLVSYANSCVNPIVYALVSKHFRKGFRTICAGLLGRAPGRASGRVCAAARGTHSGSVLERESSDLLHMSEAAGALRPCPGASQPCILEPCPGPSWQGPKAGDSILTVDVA
HSV augment: increases HSV replication in cells. maximum fold increase. HSV replication augmentation in cells, fold increase. 0.005% of 220,000 active;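 active = peak rise of 1.5-fold or more in the series; tested in PC3 cells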;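 also: first round at 10 µM; read as green reporter fluorescence; hits show the peak of a series up to 25 µM; 1 = signal of infected wells without compound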
INS promoter inh cell count: second read-out of INS promoter inh, no call of its own (marks repeat the call); normalized cell count, %; measured here: cell count, toxicity; reference of the scale not given here;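 cells exposed to compound for 48 h; stained nuclei by imaging scaled within each plate; lower means fewer cells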
HSV augment primary fold: second read-out of HSV augment, no call of its own (marks repeat the call); fold increase; compound at 10 µM; measured here: primary screen fold increase 10 uM; tested in PC3 cells;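 GFP signal in the first replicate; 1 = infected wells without compound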
The depositor's hits bear a star; i = inactive; x = no result given. Compounds were not picked by outcome. Share with any hit: about 1.3%.

Keys: A = RGS16-Gao HTS; B = PKD1 kinase inh; C = INS promoter inh; D = INS promoter inh cell count; E = GALR2 ag; F = HSV augment; G = HSV augment primary fold
1	COC(=O)c1ccccc1NC(=S)N1CCC(N2CCCCC2)CC1
  A = 88; B = 1; C = x; D = x; E = x; F = i; G = 0.82
2	c1ccc2c(c1)CCN(c1nc3cc4c(cc3s1)OCO4)C2
  A = 103; B = -3; C = -30; D = 143; E = -1.1; F = i; G = 0.95
3	CCCNC(=O)c1onc(CSc2cccc(OC)c2)c1C(=O)NCCC
  A = 102; B = x; C = x; D = x; E = x; F = i; G = 0.73
4	CC(C)CCNC(=O)CN(Cc1ccc2c(c1)OCO2)C(=O)Cn1nnc(-c2cccs2)n1
  A = 98; B = -12; C = 0; D = 146; E = -0.1; F = i; G = 0.92
5	Cc1cccc(C)c1NC(=O)C(C)c1ccc(-c2ccccc2)c(F)c1 (centres undefined)
  A = 91; B = -1; C = 17; D = 114; E = -2.7; F = i; G = 0.95
6	O=C1CC(C(=O)Nc2cccc(F)c2)n2c(nc3ccccc32)N1 (centres undefined)
  A = 97; B = x; C = x; D = x; E = x; F = i; G = 0.99
7	O=C(CSc1ccccc1C(=O)O)NCc1ccco1
  A = 104; B = 9; C = -16; D = 110; E = -3.2; F = i; G = 0.98
8	COc1ccccc1/C=C(/CC(=O)NCc1ccc2c(c1)OCO2)c1nc2ccccc2s1
  A = 82; B = -4; C = 17; D = 58; E = -1.9; F = i; G = 0.98
9	COc1ccc(/C=N/Nc2ncnc3c2[nH]c2ccccc23)c(OC)c1OC
  A = 72; B = 0; C = 31; D = 50; E = 2.5; F = i; G = 0.95
10	O=C(c1ccccc1)N1CCN(c2nc3ccc([N+](=O)[O-])cc3s2)CC1
  A = 100; B = -4; C = x; D = x; E = x; F = i; G = 1.1
11	CCC(CC)C(=O)N1N=C(c2ccc(NS(C)(=O)=O)cc2)CC1c1ccccc1 (centres undefined)
  A = 104; B = x; C = x; D = x; E = x; F = i; G = 1
12	COc1ccc(NC(=O)C2=C(C)NC(=S)NC2c2ccc(O)c(OC)c2)cc1 (centres undefined)
  A = 104; B = 0; C = x; D = x; E = x; F = i; G = 1
13	CNC(=O)c1ccccc1NC(=O)c1c(O)c2c([nH]c1=O)CCCC2
  A = 100; B = -4; C = 22; D = 116; E = 0.1; F = i; G = 1
14	Cc1nc2c([N+](=O)[O-])c(C)c(C)cc2[nH]1
  A = 88; B = 3; C = 57; D = 152; E = x; F = i; G = 0.92
15	CCN(Cc1ccncc1)C(=O)c1cccs1
  A = 93; B = -9; C = -9; D = 118; E = -3.4; F = i; G = 1.3
16	O=c1oc2c(CN3CCCCC3)c(O)ccc2c2c1CCCC2
  A = 103; B = -3; C = -31; D = 115; E = 2.9; F = i; G = 0.92
17	C/C(Cl)=C\Cn1c(N2CCCC2)nc2c1c(=O)[nH]c(=O)n2C
  A = 98; B = -2; C = 24; D = 91; E = 0.0; F = i; G = 0.9
18	Cc1ccc(C(=O)NNC(=S)Nc2cccc(Cl)c2Cl)cc1[N+](=O)[O-]
  A = 99; B = 7; C = x; D = x; E = -3.6; F = i; G = 0.96
19	Cn1nc(C(=O)NCCOc2ccccc2)c2ccccc2c1=O
  A = 101; B = 2; C = 20; D = 106; E = x; F = i; G = 0.91
20	Cc1ccc2nc(N(CCCN(C)C)C(=O)COc3ccc(Cl)cc3)sc2c1
  A = 97; B = -1; C = 22; D = 76; E = x; F = i; G = 1
21	O=C(CSc1nc(C2CCCCC2)n(-c2ccccc2)n1)NCCN1C(=O)CSC1=O
  A = 114; B = 7; C = 44; D = 105; E = -1.2; F = i; G = 0.9
22	O=C(CCc1ccccc1)NN1C(=O)C2C3C=CC(O3)C2C1=O (centres undefined)
  A = 104; B = 2; C = 15; D = 49; E = x; F = i; G = 0.82
23	CCOC(=O)C1CCCN(c2ncnc3c2cnn3-c2cccc(C)c2)C1 (centres undefined)
  A = 100; B = -12; C = 50; D = 100; E = 0.0; F = i; G = 0.98
24	CCOc1ccc(/C=N/OCC(=O)NCc2cccs2)cc1
  A = 96; B = -2; C = x; D = x; E = -1.1; F = i; G = 0.95
25	CC(C)CNC(=S)NC(=O)c1ccc(Cl)cc1Cl
  A = 103; B = -6; C = x; D = x; E = 0.9; F = i; G = 1.2
26	O=C(O)c1oc2ccccc2c1CN1CCN(c2ccccc2)CC1
  A = 86; B = -9; C = 9; D = 91; E = -0.4; F = i; G = 0.89
27	CCOc1ccccc1-n1c(SCC(N)=O)nnc1-c1ccco1
  A = 99; B = 4; C = -23; D = 109; E = -0.1; F = i; G = 1
28	CCOc1ccc(C(=O)Cc2cc(OC)c(OC)cc2[N+](=O)[O-])cc1
  A = 104; B = -3; C = x; D = x; E = 2.9; F = i; G = 0.95
29	CCCCNS(=O)(=O)c1ccc2nc(-c3cccnc3)cc(C(=O)NC(C)CC)c2c1 (centres undefined)
  A = 91; B = -4; C = -41; D = 72; E = -1.6; F = x; G = x
30	O=C(Cc1ccc(Br)cc1)N(Cc1ccccc1)c1ccccn1
  A = 107; B = -2; C = x; D = x; E = x; F = i; G = 1.1
31	COc1ccc(NC(=O)COC(=O)[C@@H](NC(=O)c2c(F)cccc2F)C(C)C)cc1
  A = 142; B = -5; C = -53; D = 124; E = x; F = i; G = 0.89
32	Cc1cc(Sc2nc(NC(C)(C)C)nc(N3CCOCC3)n2)nc(Cl)n1
  A = 101; B = -14; C = -3; D = 126; E = -1.4; F = i; G = 0.95
33	NS(=O)(=O)c1ccc(Nc2nc(-c3ccccc3)cs2)cc1
  A = 150; B = 8; C = 2; D = 109; E = -1.3; F = i; G = 0.69
34	COc1ccccc1CCc1nnc(CCC(=O)NC(C)Cc2cccnc2)o1 (centres undefined)
  A = 100; B = 0; C = x; D = x; E = x; F = i; G = 0.95
35	COc1cc(CNC2CCCCCC2)cc(OC)c1
  A = 106; B = -1; C = 19; D = 54; E = -4.0; F = i; G = 0.96
36	CC(Oc1ccc(F)cc1)C(=O)/C=C\N(C)C (centres undefined)
  A = 100; B = -7; C = 35; D = 122; E = -2.6; F = i; G = 1
37	Cc1c(C#N)c(N)nc2c3c(sc12)NC(=O)CC3c1ccc(Cl)cc1 (centres undefined)
  A = 96; B = 1; C = -9; D = 83; E = 3.2; F = i; G = 0.93
38	CC(C)=CC(=O)NCc1c(Cl)cccc1-n1cccc1
  A = 101; B = -8; C = 33; D = 117; E = -3.4; F = i; G = 1
39	COc1ccc2cc3c(N)nn(C(=O)C4CCC(C(C)(C)C)CC4)c3nc2c1 (centres undefined)
  A = 101; B = -4; C = 60*; D = 90*; E = 0.8; F = i; G = 0.44
40	O=C(NCC1CCCO1)NC1CCCCC1 (centres undefined)
  A = 108; B = -5; C = 7; D = 66; E = -1.8; F = i; G = 0.83
41	CCOC(=O)c1cnc2ccc(C(=O)OC)cc2c1Nc1ccc2c(c1)OCCO2
  A = 97; B = -3; C = -63; D = 117; E = -1.4; F = i; G = 0.95
42	Cc1ccnc(NS(=O)(=O)c2ccc(NC(=O)c3ccc(S(=O)(=O)N4CCCC4)cc3)cc2)n1
  A = 92; B = 6; C = x; D = x; E = x; F = i; G = 0.99
43	Cc1ccc(C(=O)NC(=S)Nc2ccc(-c3cc4ccccc4oc3=O)cc2)c(C)c1
  A = x; B = -10; C = x; D = x; E = -3.4; F = i; G = 1
44	COc1ccc(CCn2nnnc2C(c2ccc(C)cc2)N2CCN(C)CC2)cc1OC (centres undefined)
  A = 28; B = -5; C = -3; D = 119; E = -3.8; F = i; G = 0.9
45	CC(C)n1nnnc1SCC(=O)NNC(=O)C1CCCCC1
  A = 97; B = 2; C = 4; D = 107; E = -2.0; F = i; G = 0.84
46	COc1ccc(-n2c(Cn3c(=O)sc4ccccc43)nnc2SCC(N)=O)cc1
  A = 76; B = -7; C = x; D = x; E = -0.3; F = i; G = 0.95
47	CCCCCCNC(=O)c1cccc(-c2ccc(C)c3ccccc23)n1
  A = 74; B = -6; C = -10; D = 109; E = 0.8; F = i; G = 1
48	CCN1CCN(c2c(C(=O)c3ccc(OC)cc3)cnc3ccccc23)CC1
  A = 101; B = -8; C = x; D = x; E = x; F = i; G = 0.96
49	Cc1ccc(C(=O)CCC(=O)CCC(=O)O)cc1
  A = x; B = -8; C = -444; D = 50; E = -2.3; F = i; G = 0.8
50	OC(c1ccccc1)c1cccnc1 (centres undefined)
  A = 61; B = -5; C = 29; D = 82; E = -1.1; F = i; G = 1.1

The list goes on:
Keys: A = RGS16-Gao HTS; B = PKD1 kinase inh; C = INS promoter inh; D = INS promoter inh cell count; E = GALR2 ag; F = HSV augment; G = HSV augment primary fold
51	Cc1ccc(Nc2c([N+](=O)[O-])c(=O)oc3ccccc23)cc1
  A = 257; B = 8; C = 7; D = 93; E = x; F = i; G = 0.92
52	O=C(CN(C(=O)CNC(=O)c1cccs1)c1ccc2c(c1)OCCO2)NC1CCCC1
  A = 95; B = -4; C = 4; D = 166; E = -1.1; F = i; G = 0.82
53	CS(=O)(=O)Nc1ccccc1Oc1ccccc1
  A = 98; B = 0; C = -28; D = 69; E = 0.0; F = i; G = 0.93
54	O=C(NCCC1=CCCCC1)C(=O)NCC1OCCCN1S(=O)(=O)c1ccccc1 (centres undefined)
  A = 100; B = -6; C = 7; D = 151; E = 0.8; F = i; G = 1.1
55	CCOc1cc(C2C3=C(CCCC3=O)N(C)C3=C2C(=O)CCC3)cc(Cl)c1O
  A = 99; B = 1; C = 48; D = 115; E = -0.7; F = i; G = 0.91
56	Cc1c(C(=O)Nc2ccc(-n3cnnn3)cc2)oc2ccccc12
  A = 96; B = 5; C = 9; D = 55; E = 0.6; F = i; G = 0.91
57	CC(C)NC(=O)c1cc2c(s1)CCCC2
  A = 132; B = -3; C = 61; D = 64; E = 0.4; F = i; G = 0.94
58	S=c1[nH]ncn1/N=C/c1cccc(Oc2ccccc2)c1
  A = 104; B = 4; C = 41; D = 94; E = -0.3; F = i; G = 0.67
59	COc1ccc(-c2[nH]nc3oc(=O)c(CCO)c(C)c23)cc1
  A = 101; B = 9; C = x; D = x; E = x; F = i; G = 0.89
60	CC(C)(C)N(NC(=O)c1ccccc1)C(=O)c1ccc(C(=O)N(NC(=O)c2ccccc2)C(C)(C)C)cc1
  A = 58; B = 8; C = -17; D = 88; E = -1.0; F = i; G = 1
61	O=S(=O)(Nc1ccc(-c2nc3cccnc3s2)cc1)c1ccccc1F
  A = 99; B = x; C = x; D = x; E = x; F = i; G = 0.92
62	Cc1ccc(C(=O)N2CCc3ccccc32)o1
  A = 102; B = -5; C = -27; D = 78; E = -1.5; F = i; G = 0.91
63	CC1CCN(CCCOc2ccc(OCc3ccccc3)cc2)CC1
  A = 108; B = 15; C = -18; D = 132; E = -0.2; F = i; G = 0.94
64	CCCCC1=CC2=C(c3ccco3)C(=O)C(C)(OC(=O)c3ccc(OC)cc3)C(=O)C2=CN1CCOC (centres undefined)
  A = 72; B = x; C = x; D = x; E = x; F = i; G = 0.92
65	COc1ccc(-c2cc(C(F)(F)F)nc(-n3cc(Br)cn3)n2)cc1
  A = 99; B = -4; C = 4; D = 104; E = -1.3; F = i; G = 1.1
66	Cn1c(N=Nc2ccc(N3CCOCC3)cc2)[n+](C)c2ccccc21
  A = 102; B = 0; C = x; D = x; E = x; F = i; G = 0.91
67	Cc1nccc(-c2cc(-c3ccc(Cl)cc3Cl)no2)n1
  A = 101; B = x; C = x; D = x; E = x; F = i; G = 0.99
68	CCn1c2c(c(=N)c3ccccc31)CCC2
  A = 93; B = x; C = x; D = x; E = x; F = i; G = 0.56
69	Cn1c(=O)[nH]c(=O)c2c1ncn2CCN1CCOCC1
  A = 100; B = 7; C = 62; D = 143; E = -2.7; F = i; G = 0.99

Bioassay records deposited in PubChem BioAssay by several laboratories.
